# Screens as filed in PubChem.
# VACV mCherry inh: vaccinia inhibition (mCherry reporter); Vaccinia virus mCherry reporter infection, fluorescence; about a quarter of the inactives have no number; Potency, µM (top dose mostly 36.5 µM), without a hit: at the highest dose activity change, negative = inhibition, most hits filed as inhibitors; 0.63% of 310,000 active; active = well fitted inhibition curve with a large enough effect; inconclusive = small, poorly fitted or top-dose-only effect; inactive = no such curve, though single readings can be large or run the other way; tested in A549 cells; also: nearly all actives have a fitted effect of over 35% in size; inactives centre near -10
# Vaccinia Venus: inhibitors of vaccinia virus (Venus reporter); AID 720580; Potency, µM (highest dose often 36.5 µM), for the others: at the top dose activity change, negative = inhibition, usual class: inhibitors; 0.46% of 330,000 active; Vaccinia virus Venus reporter expression, fluorescence; active means well fitted inhibition curve with a large enough effect; inconclusive means small, poorly fitted or top-dose-only effect; inactive means no such curve, though single readings can be large or run the other way; tested in A549 cells; also: nearly all actives have a fitted effect of over 30% in size; inactives centre near -10
# Active calls of the source: *; i = inactive; ? = inconclusive; / = not tested or not shown; & = joins results of further samples; [ ] = another dose, or the depositor's remark. % is scaled to controls: 0 for no effect and ±100 for the full control effect; potency is read from the fitted curve at half-maximal effect.
SMILES,VACV mCherry inh,Vaccinia Venus
Cc1nc2sc(C(=O)c3ccccc3)c(N)c2c(C)c1C,-8.6%,-9.6%
Cn1c(=O)c(=O)n(C)c2cc(N3CCCC3)c(NC(=O)c3ccc(C(C)(C)C)cc3)cc21,1.5%,-6.6%
Cc1cccc(NC(=O)c2ccc3[nH]c(C)cc(=O)c3c2)c1,-8.6%,-1.8%
Cc1cc(C)c(S(=O)(=O)Nc2ccc(O)c(Sc3ncn[nH]3)c2)cc1C,-11.6%,-3.3%
Cc1ccc(CSc2ncc(Cl)c(C(=O)Nc3nc4ccc(C)cc4s3)n2)cc1,-10.9%,-3.5%
C=CCn1c(O)c(C(CC)=NCCCO)c(=O)[nH]c1=O,/,-4.7%
CCc1cccc(CC)c1NC(=O)c1cc(CN2C(=O)c3ccccc3C2=O)ccc1OC,-1.5%,-26.4%
CCCCSCc1cc(C(=O)O)oc1C(C)(C)C,-4.7%,-1.4%
CCOC(=O)C1=C(C)N=c2s/c(=C\c3ccc(C(=O)O)cc3)c(=O)n2C1c1ccc(F)cc1 (stereo not given),i,-14.9%
COc1c(C)cc(C(=O)C2CCCN(C3CCOCC3)C2)cc1C (stereo not given),i,-13.1%
Cc1c(C(=O)OC(C)C)[nH]c2c1C(=O)CCC2,-12.5%,-18.9%
CCN(Cc1ccncc1)C(=S)Nc1ccccc1,-10.5%,-9.1%
COc1ccc(-c2cc(C)no2)cc1S(=O)(=O)N1CCN(c2ccc(C(C)=O)cc2)CC1,-19.8%,-20.1%
CCNC(=O)c1cccc(NC(=O)CC2SC(N3CCCCC3)=NC2=O)c1 (stereo not given),-13.3%,-4.6%
C=C1C=C(C(F)F)n2ncc(C(=O)NCc3ccc(F)cc3)c2N1,-19.2%,-7.6%
CCN(CC)CCNC(=O)COc1ccc(OC)cc1,-13.7%&-16.2%&-6.1%,-12.5%&-1.8%&0.7%
COc1ccc(CCn2c(N3CCOCC3)nc3c2c(=O)[nH]c(=O)n3C)cc1,-4.7%,-16.8%
Cc1ccccc1NC(=O)C1CCCN1S(=O)(=O)c1ccccc1C(F)(F)F (stereo not given),-2.0%,-10.2%
Cc1cc(C)c2nc(NNC(=O)c3ccc(S(=O)(=O)N4CCCC(C)C4)cc3)sc2c1 (stereo not given),3.98µM*,?
CCOc1ccccc1NC(=O)CN(C)S(=O)(=O)c1cnc[nH]1,-6.3%,-5.6%
CCOC(=O)c1cnc(SCC(=O)c2ccc(C)cc2)nc1N,/,-3.2%
CC(C)CN(CC(C)C)S(=O)(=O)N1CCC(C(=O)NCc2ccc(F)cc2)CC1,-13.3%,-25.5%
COc1ccc(C(O)c2nc(-c3ccccc3OC)cs2)cc1 (stereo not given),i,-11.9%
C=CCN(CC=C)C(=O)CCc1nnc(CCc2c[nH]c3ccccc23)o1,-25.5%,-26.0%
O=C(CSc1nnc(COc2ccc(Cl)cc2)o1)Nc1ccc(N2CCOCC2)cc1,i,-17.8%
COc1ccc(NC(=O)COC(=O)Cc2cccs2)cc1OC,i,3.5%
Cc1cc(C(=O)COC(=O)/C=C/c2ccco2)c(C)n1C,-10.0%,19.6%
O=C(Cc1c(F)cccc1Cl)Nc1ccc(-n2cnnn2)cc1,1.2%,-6.4%
O=C1CN(C(=O)COc2ccccc2)CCN1,i,-12.3%
Cc1noc(C)c1S(=O)(=O)Nc1ccc2c(c1)CC(=O)N([C@H](C)CO)C[C@H](C)[C@H](CN(C)S(=O)(=O)c1ccc(F)cc1)O2,-3.7%,-6.4%
O=C(COC(=O)Cc1ccc(Cl)cc1Cl)NCCC1=CCCCC1,-0.8%,-2.9%
O=C(Nc1cccc(C(F)(F)F)c1)C(Sc1cccc[n+]1[O-])c1ccccc1 (stereo not given),i,-5.9%
CCOC(=O)C1CCN(CC(O)COCc2ccccc2)CC1 (stereo not given),i,-15.9%
O=C(NC1CCN(Cc2ccccc2)CC1)C1CCN(c2nnc(-n3cccc3)s2)CC1,-18.8%,-15.9%
CC(=O)Nc1cccc(-c2ccnc3c2CC(C(=O)NCCN(C)C)O3)c1 (stereo not given),-9.7%,-1.6%
O=[N+]([O-])c1cccc(S(=O)(=O)NCC2CCCO2)c1 (stereo not given),-14.5%,-8.6%
CCOC(=O)C1CCCN(C(=O)c2nn(-c3ccc(C)cc3)c(=O)c3c2c2ccccc2n3C)C1 (stereo not given),4.4%,9.1%
CC(c1cccnc1)N(CCN(C)C)C(=O)Nc1ccc(Cl)c(Cl)c1 (stereo not given),3.5%,-5.4%
COc1ccc(N2CCN(C(=O)c3cc(S(=O)(=O)N4CCCCCC4)ccc3OC)CC2)cc1,-0.4%,-18.2%
CCCCCC(=O)N1C[C@H](O)[C@@H](n2cc(-c3ccc(F)cc3)nn2)C[C@@H]1c1ccc(C)cc1,-6.8%,-24.0%
O=C(COc1ccccc1)Nc1c2c(nn1-c1ccc(F)cc1)CS(=O)C2 (stereo not given),i,-5.0%
COCCOC1CCN(C(=O)C2CCC(=O)N(CCc3cccc(F)c3)C2)CC1 (stereo not given),-20.6%,-2.2%
COC(=O)c1cc2sccc2n1CC(=O)N(C)c1ccccc1,-6.3%,-11.5%
CCOC(=O)C(C(=O)NCC1CCCO1)C1CCCCC1 (stereo not given),/,-5.7%
O=C(NCCCN1CCCC1=O)c1cn(-c2ccccc2)nc1-c1ccccc1,-16.7%,-0.1%
CCc1ccc(NC(=O)CN2C(=O)CCSc3ccccc32)cc1,-6.1%,?
Cc1cccc(CC2S/C(=N/c3cccc(C)n3)NC2=O)c1 (stereo not given),-11.6%,2.0%
COc1ccc(NC(=O)c2cccc(N3CCCS3(=O)=O)c2)cc1OC,-0.3%,3.0%
O=C(NCc1ccc(F)cc1)C1CCCN(S(=O)(=O)c2cccc3nonc23)C1 (stereo not given),-12.6%[7.34 µM],-11.9%[7.34 µM]
COc1ccccc1NC(=O)c1ccc(COc2ccccc2OC)o1,i,-7.4%

# Entries above containing a tert-butyl group:
SMILES,VACV mCherry inh,Vaccinia Venus
Cn1c(=O)c(=O)n(C)c2cc(N3CCCC3)c(NC(=O)c3ccc(C(C)(C)C)cc3)cc21,1.5%,-6.6%
CCCCSCc1cc(C(=O)O)oc1C(C)(C)C,-4.7%,-1.4%

# (listing goes on)
SMILES,VACV mCherry inh,Vaccinia Venus
CCC(C)N=CC1=C(O)C(C(=O)OC)C(C)(C)CC1=O (stereo not given),/,18.6%
CCOC(=O)c1c(C)n(Cc2ccccc2)c2ccc(OCC(O)CN3C(=O)CNC3=O)cc12 (stereo not given),-19.1%,-15.3%
Cn1c(=O)c2c(ncn2CC(=O)NCc2cccnc2)n(C)c1=O,-1.0%,-0.4%
COc1ccc(CCNS(=O)(=O)c2ccccc2)cc1OC,-23.3%,-10.7%
O=C(/C=C/c1ccco1)Nc1ccc(N2CCCC2)cc1,-14.5%,1.4%
COc1ccc(CNC(=O)CCn2nc(C)c3c(C)n(-c4ccccc4)nc3c2=O)cc1OC,-21.3%,-15.7%
CCN1CCN(Cc2ccc(NC(=O)Nc3ccccc3)cc2)CC1,19.6%,0.3%
CC(=O)c1cccc(NC(=O)N2CCCC2C(=O)NCCc2ccccc2)c1 (stereo not given),-9.2%,7.7%
Cc1onc(-c2ccccc2)c1C(=O)NCc1ccccn1,-9.3%,-6.3%
CC(NC(=O)Cn1nc(C(F)(F)F)c2c1CCC2)c1ccccc1 (stereo not given),-16.0%,-7.5%
CCC(=O)N1CCN(c2cc(NCC3CCCO3)c(F)cc2[N+](=O)[O-])CC1 (stereo not given),-7.7%,-4.2%
O=C(c1cc(-c2ccccc2O)on1)N1CCCC1,i,-16.3%
CNC(=O)c1cccc(N2CCCC2=O)c1,-12.1%,-3.6%
CSc1ncccc1C(=O)OC(C)C(=O)Nc1ccc2c(c1)OCCO2 (stereo not given),-9.0%,-12.7%
Cc1cc(C)cc(OCCCn2c(CCNC(=O)C3CCCCC3)nc3ccccc32)c1,-6.3%[7.34 µM],-5.7%[7.34 µM]
CCN(Cc1ccccc1)S(=O)(=O)CCNC(=O)c1ccc(OC)cc1,3.1%,3.3%
Cc1[nH]c2ccccc2c1C(O)CN1CCN(c2cccc(C(F)(F)F)c2)CC1 (stereo not given),-9.9%[1.46 µM],?
COc1ccc(N(Cc2cc3cccc(C)c3[nH]c2=O)C(=O)c2cccc(Cl)c2)cc1,-5.3%,-23.1%
CCN1C(=O)[C@@H]2[C@H](C1=O)[C@@H]1C(=O)Nc3ccccc3C(=O)N1[C@@H]2c1cccc(C)c1,i,-0.1%
O=C(CSc1nc2ccccc2c(=O)[nH]1)Nc1ccccc1N1CCOCC1,-6.3%,-6.6%
CSCCC(NC(=O)c1ccccc1Cl)C(=O)NNC(=O)c1ccccc1O (stereo not given),-23.1%,-17.8%
CCn1nnc(-c2ccccc2NC(=O)c2cc(OC)cc(OC)c2)n1,-5.9%,-14.2%
Cc1ccccc1C(=O)Oc1ccc(-c2csnn2)cc1,-9.2%[7.34 µM],-8.0%[7.34 µM]
CC1(C(=O)O)CCC(C(=O)Nc2ccc(S(N)(=O)=O)cc2)C1(C)C (stereo not given),1.5%[1.46 µM],-9.3%
COc1ccc(CC2(CO)CCN(Cc3ccc(NC(C)=O)cc3)CC2)cc1,0.4%,-6.8%
COc1ccc(-c2nc(N)n[nH]2)cc1OC,/,-28.8%
Cc1cc(N/N=C/c2cccc(Br)c2)nc2ccccc12,-12.7%,-23.3%
CC(C)=CCC/C(C)=C/CC/C(C)=C/CC/C(C)=C/CO,-12.4%,-3.3%&-5.0%
CCCc1nc2ccc(Cl)cn2c1Cc1ccc(C)cc1,3.6%,10.5%
COC(=O)c1nc(NC(=O)c2ccc(Br)cc2)n[nH]1,-11.7%,-2.0%
Cc1ccc(S(=O)(=O)N2CCOCC2)cc1C(=O)NCc1cccs1,-2.9%,-1.8%
COc1ccccc1N1CCN(C(=O)c2ccc(C(C)(C)C)cc2)CC1,11.2µM*,10µM*
O=C(c1ccc2c(c1)C(=O)N(CCCO)C2=O)c1ccc2c(c1)C(=O)N(CCCO)C2=O,/,9.7%
CCCC(C)NC(=O)COc1ccc(S(=O)(=O)c2ccc(OCC(=O)NC(C)CCC)cc2)cc1 (stereo not given),-10.0%,1.3%
COc1ccc(C2/C=C\CN(S(=O)(=O)/C=C/c3ccccc3)[C@H](Cc3ccccc3)C(=O)N2Cc2ccc(F)cc2)cc1 (stereo not given in full),-9.0%,-3.5%
CC(C)CC(=O)N(c1nnc(-c2cccnc2)s1)C1CCCC1,-12.3%,-9.2%
CCN(CC)CCOC(=O)c1ccc([N+](=O)[O-])cc1,-15.2%,-9.6%
O=C(N1CCCCC1)C12CC3CC(C1)CC(C(=O)N1CCCCC1)(C3)C2,/,-20.8%
CCCOC(=O)C1=C(C)CS[C@@H]2[C@H](NC(=O)COc3ccccc3)C(=O)N12,-11.3%,?
CCCCC(=O)NC(Nc1nc(C2CC2)cs1)(C(=O)OCC)C(F)(F)F (stereo not given),-18.0%,-15.5%
CCOc1ccc(NC(=O)Cn2nc(SC)c(S(=O)(=O)c3ccccc3)c2N)cc1,-27.3%,-14.8%
CCCC1OC(c2ccco2)OCC1CC (stereo not given),-2.5%,-2.1%
CC(C)(C)N1CC(C(=O)O)CC1=O (stereo not given),14.0%,0.6%
COc1ccccc1N1CCN(C(c2cccs2)C(C)NC(=O)c2cccnc2)CC1 (stereo not given),i,-22.6%
COc1ccc(C(C)=O)cc1CSc1nc(NCCc2ccccc2)c2ccccc2n1,-25.3%,-23.5%
COc1ccc(CC(=O)NNC(=O)c2cc(Cl)ccc2OC)cc1,-15.0%,-21.6%
C/C(=N\NC(=O)C(N)=O)c1cccc(C(F)(F)F)c1,8.0%,1.4%
Fc1ccc2nc(C3CCCCN3Cc3nc(CC4CC4)no3)[nH]c2c1 (stereo not given),-1.8%,-8.9%
CCCOc1cc2c(C#N)c(N3CCCC3)nc(N)c2c(N)n1,?,?
c1ccc(C(c2ccccc2)c2noc(CN3CCN(CC4CC4)CC3)n2)cc1,?,-15.1%

# Whole records from above. Screens in order: VACV mCherry inh | Vaccinia Venus
# COc1ccc(C(C)=O)cc1CSc1nc(NCCc2ccccc2)c2ccccc2n1 across the screens: -25.3% | -23.5%
# c1ccc(C(c2ccccc2)c2noc(CN3CCN(CC4CC4)CC3)n2)cc1 across the screens: ? | -15.1%
# CCCOc1cc2c(C#N)c(N3CCCC3)nc(N)c2c(N)n1 across the screens: ? | ?
# CCOc1ccc(NC(=O)Cn2nc(SC)c(S(=O)(=O)c3ccccc3)c2N)cc1 across the screens: -27.3% | -14.8%

# (list continues)
SMILES,VACV mCherry inh,Vaccinia Venus
Cc1ccc(-n2nc(C(=O)Nc3ccc(Br)cc3C)c(=O)n(C)c2=O)cc1,-14.9%,-12.3%
O=C(CNC(=O)c1ccc(Cl)cc1)OCCCOC(=O)CNC(=O)c1ccc(Cl)cc1,i,-11.3%
CCOc1ccc(OCc2ccc(C(=O)NCC3CCCO3)o2)cc1 (stereo not given),i,-13.2%
COc1cc2c(cc1OC)CN(C(=O)CCOc1ccccc1)CC2,-15.4%,-16.9%
CC(=O)Nc1ccc(S(=O)(=O)NCCc2c[nH]c3ccc(C)cc23)cc1,-14.0%,-8.9%
CC(=O)Nc1cccc(-c2cc(N3CCN(CCO)CC3)n3nccc3n2)c1,23.9%,4.8%
Cc1ccc(S(=O)(=O)NC2CC(=O)N(c3ccc4c(c3)OCCO4)C2)cc1 (stereo not given),i,-4.1%
O=C(CN1CCCCC1)N/N=C/c1cc2ccccc2nc1Cl,8.7%,-2.7%
COC(=O)c1ccc(CSc2nc3ccccc3c(=O)n2-c2ccccc2)o1,/,-18.5%
Cc1cccc(/C=N/NC(=O)c2cc(-c3cccnc3)nc3ccccc23)c1,3.3%,-2.2%
